# Bioassay records (PubChem BioAssay)
# Rango dissoc inh: inhibitors of RanGTP-induced Rango-importin beta complex dissociation | Biochemical FRET Rango-importin beta, RanGTP-induced dissociation | Potency, µM (top dose mostly 46.1 µM), for the others: top-dose activity change, negative = inhibition | 0.071% of 340,000 active; active means falling FRET ratio curve, often poorly fitted, with flat reads before Ran was added; inconclusive means other falling curves, or compound fluorescence or quenching; inactive means flat or rising ratio curve;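 also: potency is read from the fitted curve at half-maximal effect; % of control where 0% means no effect; nearly all actives have a fitted effect of over 45% in size; -100% = wells without RanGTP and RCC1; the record marks most hits as doubtful in a second field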
#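 Recombinant Rango FRET biosensor (EYFP–snurportin 1 IBB–cerulean CFP10) at 0.1 uM premixed with 0.25 uM importin beta in PBS, 1 mM DTT, 0.02% Tween-20, 0.1% BSA. Compound added 5 min; RanGTP-RCC1 (0.6 uM Ran, 2 mM GTP, 0.2 uM RCC1) then triggers release, read at 45 min.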
# GLA inh pH 4.5: alpha-galactosidase A (human) inhibition, pH 4.5; activity change, negative = inhibition, % at 105 µM; AID 1467; P06280; 230,000 tested, under 10 active; purified enzyme, 4-MU-alpha-Gal fluorescence, pH 4.5; inconclusive = small, poorly fitted or top-dose-only inhibition, or a rising curve; inactive = flat fitted curve, though single readings scatter; no compound was filed as active;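 also: 0% = full activity with enzyme and -100% = basal without enzyme; dose as in the result columns while the protocol names 77 µM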
# Target sequence (P06280 whole entry, looked up): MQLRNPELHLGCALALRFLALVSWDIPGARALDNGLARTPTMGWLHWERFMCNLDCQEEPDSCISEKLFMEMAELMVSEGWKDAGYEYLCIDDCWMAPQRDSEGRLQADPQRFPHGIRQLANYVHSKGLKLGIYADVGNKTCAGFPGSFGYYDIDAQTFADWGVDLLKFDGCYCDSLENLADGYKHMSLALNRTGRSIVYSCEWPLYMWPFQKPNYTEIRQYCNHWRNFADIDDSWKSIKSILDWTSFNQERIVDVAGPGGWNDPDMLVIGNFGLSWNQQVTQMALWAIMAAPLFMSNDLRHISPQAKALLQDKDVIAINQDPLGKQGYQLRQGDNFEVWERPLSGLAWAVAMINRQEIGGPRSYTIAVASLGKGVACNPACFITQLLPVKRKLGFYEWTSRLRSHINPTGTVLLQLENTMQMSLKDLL
# Rango-impB inh: prevents formation of the Rango-importin beta complex | Q14974 | Rango CFP/YFP FRET sensor + importin beta, 45 min | Potency, µM (top dose mostly 92.2 µM), for inactives: at the highest dose inhibition of complex formation | 0.031% of 340,000 active; active = rising FRET ratio curve, often small or poorly fitted; inconclusive = mostly compound fluorescence or quenching in the first reads; inactive = flat curves in all reads;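 also: potency is read from the fitted curve at half-maximal effect; 0% = DMSO wells and 100% = buffer wells lacking importin beta; nearly all actives have a fitted effect of over 15% in size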
#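 FRET biosensor Rango (snurportin 1 IBB between N-terminal EYFP and C-terminal Cerulean), 50 nM in PBS/1 mM DTT/0.02% Tween-20/0.1% BSA, preincubated 5 min RT with compound; 0.125 microM importin beta added, 45 min RT, CFP/YFP FRET ratio read.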
# miR-21 reporter: raises the signal of a miR-21 reporter; 340,000 tested, under 10 active; HeLa miR-21 FLuc reporter, luciferase, 48 h; Potency, µM (highest dose often 38.3 µM), without a hit: at the highest dose reporter change, positive = more light; AID 2288; active = well fitted rising curve with a large enough effect; inconclusive = small, poorly fitted or top-dose-only effect; inactive = no such curve, though single readings can be large or run the other way;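 also: % of control where 0% means no effect; miR-21 action dims this reporter so a rising signal means less miR-21 action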
#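 HeLa miR-21-FLuc reporter line, endogenous miR-21; 2000 cells/well in DMEM/10% FBS; compound titration up to ~40uM final, 48 h, 37 degree Celsius; luciferase detection reagent, 15 min lysis, CCD luminescence.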
# * = called active by the depositor; ? = inconclusive; . = not tested or not shown; & = joins results of further samples. Some of the compounds tested; count on the stated rates, not on these rows.
SMILES,Rango dissoc inh,GLA inh pH 4.5,Rango-impB inh,miR-21 reporter
N#Cc1c(N2CCN(C(=O)c3ccccc3)CC2)nc(-c2ccccc2)c2c1CCCC2,-3%,22,1.9%,-1%
CC(C)c1cccc(-c2ccc3c(c2)S(=O)(=O)c2cccc(C(=O)NC4CCCC4)c2C3=O)c1,10%,.,1.1%,.
NC(=O)c1cc(Cl)ccc1OCC(=O)Nc1ccc2c(c1)OCO2,27%,.,0.9%,.
CCN1CCN(CCCNC(=O)CS(=O)(=O)Cc2nc(-c3cccc(OC)c3)oc2C)CC1,-1%,.,-0.1%,-2%&0%
COc1ccccc1C(=O)NCCSCc1ccccc1Cl,16%,.,1.5%,-36%
CC(C)Cc1cc(C(=O)Nc2ccc(F)cc2F)no1,10%,-1,0.4%,-44%
Cc1ccc(SCCNC(=O)/C=C/c2ccc([N+](=O)[O-])cc2)cc1,-2%,-7,0.3%,-7%
O=C(c1ccc(CS(=O)c2cccc(Cl)c2)o1)N1CCN(C2CCCCC2)CC1 (stereo not given),-6%,.,2.6%,0%
O=C(CSc1nc(O)c(Cc2ccccc2)c(=O)[nH]1)c1ccccc1,1%,-10,-2.6%,-20%
COc1ccc(OCCNC(=O)c2cc(C3CC3)nc3c2cnn3C(C)C)cc1,0%,.,3.9%,.
C[C@H](CO)N1C[C@H](C)[C@@H](CN(C)C(=O)Nc2ccccc2)Oc2ccc(NC(=O)NC3CCCCC3)cc2C1=O,22%,.,3.5%,.
CC(C)[C@H](NS(=O)(=O)c1cccc(C(F)(F)F)c1)C(=O)OCC(=O)NC(=O)NCc1ccco1,-5%,.,1.5%,.
Cc1cc(C)cc(N2CN=C3SCC(=O)N3C2)c1,-11%,-5,?,-2%
O=C1C2C3C=CC(CC3)C2C(=O)N1c1nccs1 (stereo not given),-10%,3,0.0%,0%
c1ccc2c(c1)Oc1cccc3cccc-2c13,-5%,26,-0.5%,-8%
C=CCSc1nc2ccccc2n1S(=O)(=O)c1ccc(C)cc1,3%,-10,3.3%,-18%
COc1cccc(NC(=O)C2c3cc(OC)c(OC)cc3C(=O)N(C)C2c2cccnc2)c1 (stereo not given),2%,-11,-0.7%,-4%
Cc1sc2nc3n(c(=O)c2c1C)CCCCC3,6%,-2,-5.8%,-26%
O=C(CN1CCC2(CC1)OCCO2)c1ccc2cc[nH]c2c1,-7%,1,5.5%,-13%
CCOC(=O)CCc1c(C)c2ccc(OCc3cc([N+](=O)[O-])ccc3OC)cc2oc1=O,-9%,-4,-0.4%,-8%
COC(=O)C(Cc1ccccc1)NC(=O)c1ccc(C)cc1 (stereo not given),11%,1,0.6%,-3%
CCN(C(=O)COC(=O)CNC(=O)c1cccc(C)c1)c1c(N)n(Cc2ccccc2)c(=O)[nH]c1=O,3%,.,-3.0%,.
Cc1cc(C)nc(SCC(=O)c2ccc(Cl)cc2)n1,-3%,.,-2.1%,-20%
CC(C)(C)NC(=O)c1nc2ccccc2s1,-5%,-5,-0.9%,-13%
O=C(O)/C=C/c1cccc(NC(=O)c2ccc(Cl)cc2)c1,11%,-1,-3.0%,4%
O=C(Oc1ccc(F)cc1)c1cccnc1,13%,.,-0.3%,0%
CCCCCCNC(=O)CCCCCNS(=O)(=O)c1ccc(Br)cc1,0%,-6,-0.8%,0%
COc1cc(C(=O)O/N=C(\N)Cc2ccc([N+](=O)[O-])cc2)cc(OC)c1OC,-4%,-4,-0.2%,10%
CCOC(=O)c1ccccc1NC(=O)c1nc2nccc(C)n2n1,-11%,-8,-0.4%,0%
CCN(C(=O)CSc1nc2ccccc2n1CCc1ccccc1)C1CCS(=O)(=O)C1 (stereo not given),27%,5,1.7%,-7%
NC(=O)/C(=C/c1ccco1)NC(=O)c1ccc(Br)o1,-23%,.,4.4%,.
CC(C)c1csc(CN2CCN(Cc3ccc(F)cc3)C(CCO)C2)n1 (stereo not given),2%,-8,-0.7%,0%
CN1CCC(NC(=O)NC2CCCCC2)CC1,2%,-27,-4.7%,-3%
O=C(Cn1ccc2ccccc2c1=O)NCC(=O)N1CCCCC1,16%,.,-0.3%,0%
Cc1nc(-c2ccc(Cl)cc2)sc1C(=O)O,-2%,0,0.6%,-74%
COc1cccc(CN(C(=O)Cc2c[nH]c3ccccc23)C(C(=O)NC2CCCCC2)c2ccc(C)o2)c1 (stereo not given),-9%,-9,-0.8%,?

# 4 entries from above, sorted by the value under Rango dissoc inh, low to high:
SMILES,Rango dissoc inh,GLA inh pH 4.5,Rango-impB inh,miR-21 reporter
Cc1nc(-c2ccc(Cl)cc2)sc1C(=O)O,-2%,0,0.6%,-74%
CCCCCCNC(=O)CCCCCNS(=O)(=O)c1ccc(Br)cc1,0%,-6,-0.8%,0%
O=C(Oc1ccc(F)cc1)c1cccnc1,13%,.,-0.3%,0%
CCN(C(=O)CSc1nc2ccccc2n1CCc1ccccc1)C1CCS(=O)(=O)C1 (stereo not given),27%,5,1.7%,-7%

# The main list resumes; the 3 compounds before the break are reprinted first.
SMILES,Rango dissoc inh,GLA inh pH 4.5,Rango-impB inh,miR-21 reporter
O=C(Cn1ccc2ccccc2c1=O)NCC(=O)N1CCCCC1,16%,.,-0.3%,0%
Cc1nc(-c2ccc(Cl)cc2)sc1C(=O)O,-2%,0,0.6%,-74%
COc1cccc(CN(C(=O)Cc2c[nH]c3ccccc23)C(C(=O)NC2CCCCC2)c2ccc(C)o2)c1 (stereo not given),-9%,-9,-0.8%,?
Cc1nc(SCC(=O)N2c3ccccc3Sc3ccccc32)n[nH]1,14%,5,-0.6%,4%
Cc1ccc(C(=O)N(Cc2ccc3c(c2)OCO3)Cc2nc3ccccc3c(=O)[nH]2)cc1,9%,-3,0.3%,-5%
CSCC[C@H](NC(=O)c1ccc(Cl)c(S(=O)(=O)N2CCCC2)c1)c1nc2ccccc2[nH]1,-7%,-4,3.0%,-8%
O=C(Nc1cc(S(=O)(=O)N2CCOCC2)ccc1OCC(F)(F)F)C1=COCCO1,7%,.,2.4%,.
CCC1CCc2c([nH]c3ccccc3c2=O)O1 (stereo not given),7%,4,0.8%,-1%
CC(=O)N1CCN(c2ccc(NC(=O)c3ccc([N+](=O)[O-])cc3)cc2)CC1,-5%,.,-1.7%,-3%
O=C(CSc1ncn[nH]1)Nc1c(Br)cc([N+](=O)[O-])cc1Br,0%,1,-0.5%,1%
COc1cc2c(cc1OC)C(=O)N1[C@H]3c4cc(Cl)ccc4OC[C@@H]3[C@H](c3ccccc3)[C@]1(C)C(=O)N2,1%,.,?,.
COc1ccc(N(C)S(=O)(=O)c2cccc(C(=O)N(C)Cc3ccc(C)o3)c2)cc1,24%,-1,1.5%,2%
COc1ccc(-c2noc(C3CCCN(S(=O)(=O)c4ccc(C)c(Cl)c4)C3)n2)cc1OC (stereo not given),1%,1,0.2%,-4%
COc1ccc(NC(=O)N(C)C[C@H]2Oc3ccc(NC(=O)C4CC4)cc3CC(=O)N([C@@H](C)CO)C[C@@H]2C)cc1,3%,.,-2.2%,.
Cc1occc1-c1nnc(SCC(=O)c2ccccc2)n1CC1CCCO1 (stereo not given),1%,-6,-0.1%,-2%
Cc1ccc(/C=N/n2c(-c3ccc(Cl)cc3)n[nH]c2=S)s1,-1%,-5,0.1%,2%
O=C(CCCN1C(=O)/C(=C/c2ccccc2Cl)SC1=S)Nc1cccnc1,1%,.,5.2%,?
O=C(CSc1nnnn1-c1ccccc1)Nc1ncc2c(n1)CC(c1ccccc1)CC2=O (stereo not given),-13%,3,-3.8%,-4%
CCOC(=O)c1c(C)cc(C)n2c1nc1ccccc12,-11%,-17,-2.6%,-5%
Cc1cc(C(=O)N2CCc3ccccc32)c2cc(F)ccc2n1,3%,9,4.7%,-40%
COc1cccc(/C=N\Nc2nncc(-c3ccccc3)n2)c1,2%,-18,2.8%,-6%
CCOC(=O)/C=C1\SCC(=O)N1CC(=O)Nc1ccc(OC)c(OC)c1,-17%,6,0.0%,-4%
O=C(CSc1nc2ccc(Cl)cc2[nH]1)NCc1ccco1,0%,1,0.7%,2%
Cc1ccc(C(C)C)c(OCc2nnc(SCC(=O)Nc3nccs3)n2C)c1,9%,-1,1.0%,-3%
CC(C)n1ncc2c(C(=O)N3CCN(c4ccccc4)CC3)cc(-c3ccccc3)nc21,2%,.,6.7%,.
COc1cccc(CN2CC(C(=O)N(C)Cc3ccc(C)cc3)CCC2=O)c1 (stereo not given),16%,.,2.5%,-18%
CC(C)c1c(C(=O)N/N=C/C2CC=CCC2)nnn1-c1nonc1N (stereo not given),15%,.,0.2%,0%
O=S(=O)(Cc1cccc(C(F)(F)F)c1)c1ncn[nH]1,0%,5,-2.4%,-4%
CN(C)CCNC(=O)c1cccc2nc3cccc(F)c3nc12,-17%,.,?,.
Cc1ccc[n+](CC(=O)Nc2cc(C(F)(F)F)ccc2N2CCOCC2)c1,-1%,-22,0.1%,-3%
CN(c1ccccc1)S(=O)(=O)c1ccc(Cl)c(C(=O)Nc2nc3ccccc3[nH]2)c1,-24%,-9,-1.8%,21%
COc1cccc(CN2CCN(Cc3ccc(OC)c(OC)c3)CC2CCO)c1 (stereo not given),15%,-2,?,-3%
COc1cc(C)c(C(C)C)cc1S(=O)(=O)n1cnc(C)c1,10%,0,3.9%,15%
CC(C)CNC(=S)Nc1ccc(S(N)(=O)=O)cc1,1%,7,-4.7%,-11%
Cc1ccc(CNC(=O)COC(=O)CCOc2ccc(C)cc2)cc1,-18%,.,0.0%,.
CCOC(=O)c1sc(NC(=O)CCN2CCC(C)CC2)c(C(=O)OCC)c1C,1%,1,0.8%,-5%
CCOc1ccc(N(CC(=O)NC2CCCC2)C(=O)CSc2nnc(COc3ccccc3)o2)cc1,-5%,-5,-0.2%,0%
Cc1cc(=O)[nH]c(SCC(=O)Nc2ccc(Br)cc2)n1,-4%,-3,-0.1%,-7%
CN(C(=O)COC(=O)C(Cc1ccccc1)NC(=O)c1ccccc1)c1ccccc1 (stereo not given),23%,3,-1.0%,-2%
CC(C)NC(=O)/C(C#N)=C\c1ccc(N(C)C)c(Br)c1,-22%,9,?,-2%
CCOC(=O)C1=C(C)N(C)C(=O)NC1c1cccc(O)c1 (stereo not given),-11%,2,-4.2%,-4%
Cc1cc(C)cc(NC2=C(N)C(=O)c3ccccc3C2=O)c1,4%,.,-0.8%,-50%
Cc1ccc(CNS(=O)(=O)c2cc3c4c(c2)CCN4C(=O)CC3)cc1,-9%,.,-1.4%,.
CCOC(=O)CCc1c(C)c2ccc(OC3CCCCC3=O)c(C)c2oc1=O (stereo not given),17%,.,-0.6%,-20%
Cc1[nH]n(-c2ccccc2)c(=O)c1/C=N/n1c(C)nc2ccccc2c1=O,-15%,-16,-2.1%,-6%
COc1ccc(CC(=O)NCC2CCCCC2)cc1OC,7%,.,4.4%,-8%
CC(C)C(NC(=O)c1ccccc1)C(=O)NC1=NCCS1 (stereo not given),-3%,-1,2.9%,-2%
CCN(CC)c1ccc(NC(=O)COc2ccccc2C#N)cc1S(=O)(=O)Nc1ccc(OC)cc1,-1%,-11,1.1%,0%
O=C(NCCS(=O)(=O)c1ccc(Br)cc1)c1c(F)cccc1F,-7%,.,-0.3%,1%
O=C(/C=C/c1ccccc1O)c1ccccc1,21%,.,1.8%,.
Cc1ccc(CSc2nnc(Cn3c(=O)sc4ccccc43)n2C)cc1,5%,-1,-3.1%,-3%
C[C@H](NC(=O)Cn1cncn1)c1ccccc1,-3%,-10,0.7%,0%
CCN(CC)CCNC(C(=O)Nc1cccc(C(C)=O)c1)c1ccccc1 (stereo not given),24%,13,0.6%,3%
CC(C)CCNC(=O)NC(=O)Cn1cc(C(F)(F)F)ccc1=O,.,5,.,0%
CCOC(=O)c1c(C)nc2sc3c(c2c1-c1ccc(OC)cc1)NC(c1ccc(OC)cc1)NC3=O (stereo not given),?,4,?,-1%
COCCNc1nc2c(c(=O)n(C)c(=O)n2C)n1Cc1cccc(C)c1,2%,1,-2.4%,11%
